High-throughput results deposited in PubChem by several laboratories.
PrP UTR inh: inhibition of PrP 5' UTR reporter expression; cell-based PrP 5' UTR mRNA reporter, plate reader; inhibition, % (no concentration beside the values); 0.35% of 340,000 active; AID 488862, 2010;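 active means every replicate at 50% or more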;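 further: 0 = median of the neutral control wells; tested in H4 reporter cells; numbers are from one replicate; inactives centre near -14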
Mtb hypoxia inh: PubChem AID 1159583; M. tuberculosis hypoxia-regulated fluorescent reporter, fluorescence; fluorescence inhibition, % (test concentration not listed); 0.1% of 300,000 active;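 active means 35 to 45% if threefold the growth effect, above 45% if 1.5-fold the growth effect; inactive means the rest, general growth blockers included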;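 further: wells of about 50 µL received 100 nL stock; 0% = vehicle wells and 100% = reference inhibitor wells; whole bacteria with a GFP reporter of the hypoxia response; strong numbers were not always called active; many hits fall short of the cut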
Autofluor counter: counter-screen for toxin protease inhibitors: compound fluorescence; compound autofluorescence counterscreen, microsphere flow cytometry; hits give high values; fluorescence intensity (concentration not given with the values); 3.1% of 360,000 active; AID 624483;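 active means at least 3 SD above the mean of all compounds, about 16000 in these data; inconclusive means too few beads counted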;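 further: 100 nL of 1 mM stock went into each well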
Sa ugtP lethal: growth inhibition of ugtP-null S. aureus, primary screen, RN4220 ugtP deletion, OD600; 16 h; some inactives read as strong as hits; growth inhibition, % (test concentration not listed); 0.54% of 330,000 active; AID 1259309, 2017;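 active means z-score under -3 and OD600 up to 0.15 on both plates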;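 further: plate controls were untreated wells for no effect and antibiotic for full effect; wells of about 80 µL received 100 nL stock; the first replicate is given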
BJeLR lethal: MLPCN primary cell-based screen for lethality selective to Ras in HRASV12 cells; BJeLR (HRASV12) viability, CellTiter-Glo ATP luminescence, 48 h; reference of the scale not given here; inhibition, % (test concentration not listed); 0.17% of 300,000 active;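 active means replicate mean above 50%; inconclusive means above 50% but judged a plate artefact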;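 further: 50 nL library stock added to about 25 µL; numbers are from one replicate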
RN4220 kill: growth inhibition of S. aureus RN4220, primary screen, OD600; AID 1259311, 2017; 0.33% of 330,000 active; 16 h; inhibition, % (concentration not given with the values);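 active means z-score of -3 or lower and OD600 up to 0.18 on both plates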;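 further: plate controls were untreated cells for no effect and reference antibiotic for full effect; stock transfer was 100 nL into about 80 µL; one replicate is shown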
Mtb hypoxia inh growth: recorded beside Mtb hypoxia inh, whose call it bears; growth inhibition, %; measured here: M. tuberculosis growth (absorbance);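 0% = vehicle and 100% = reference antibiotic; read after six days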
Numbers without * were called inactive; ? = inconclusive; · = not tested or not shown.

SMILES	PrP UTR inh	Mtb hypoxia inh	Mtb hypoxia inh growth	Autofluor counter	Sa ugtP lethal	BJeLR lethal	RN4220 kill
NC(=O)CSc1nnc(COc2ccccc2)n1C1CCCCC1	1	5	7	19126*	7	·	4.5
CC1(C)Cc2c(c(-c3ccccc3)nc3sc4c(=O)[nH]c(=S)[nH]c4c23)CO1	·	-8	3	·	11	-14	5.4
CCCCCn1c(C(Cc2ccccc2)NC(C)=O)nc2ccccc21 (stereo not drawn)	-7	3	8	4208	-7	3	-9.3
CC1CC(C)CN(CCCCOc2ccc([N+](=O)[O-])cc2)C1 (stereo not drawn)	-20	5	11	2428	4	0	4.6
O=C(CN(C(=O)Cn1nnc(-c2ccccc2F)n1)c1cccc2c1CCCC2)NCc1ccccc1	-28	3	1	?	-3	9	-9.3
OCCCNc1cc(-c2ccnc(Nc3cccc(Cl)c3)n2)ccn1	82*	3	13	3510	44	25	19
COc1cc(-c2nnc(SCC(=O)O)n2-c2ccccc2)cc(OC)c1OC	-20	·	·	4227	·	-9	·
COc1cc(C(CC(=O)N2CCN(c3ccccc3)CC2)c2c(OC)cc(OC)c3ccc(=O)oc23)cc(OC)c1OC (stereo not drawn)	-6	-2	-2	3332	2	1	-2.5
O=C(c1cnn(C(=O)c2cccc(S(=O)(=O)N3CCOCC3)c2)c1)c1ccccc1O	-30	-4	4	4188	8	-2	14
CC(C)(CNc1ccc([N+](=O)[O-])cc1Cl)N1CCOCC1	-20	2	-2	5452	-2	-8	-2.1
COC(=O)C1CN(S(=O)(=O)c2ccc(C)cc2)CCN1S(=O)(=O)c1ccc(C)cc1 (stereo not drawn)	-18	0	6	2849	0	-3	4.8
CCOc1ccc(-n2c(N)c(C(=O)NCC3CCCO3)sc2=S)cc1 (stereo not drawn)	-13	·	·	4660	0	2	-1.0
Cc1ccccc1C(=O)Nc1ccc(S(=O)(=O)N2CCOCC2)cc1	-54	17	11	3586	9	-2	1.5
CCCCn1c(CN2CCN(C(=O)OCC)CC2)nc2c1c(=O)[nH]c(=O)n2C	-6	13	1	11028	0	-3	4.5
CC(=O)c1c(OCC(=O)N(C)C2CCCCC2)ccc2c(C)cc(=O)oc12	-7	3	8	6252	5	·	4.1
Cc1c(C(=O)NCC2CCCO2)cccc1[N+](=O)[O-] (stereo not drawn)	-18	0	6	2469	-1	-20	-1.3
Cc1cc(C)c(S(=O)(=O)N2CCN(c3ccccn3)CC2)c(C)c1	-20	12	1	6128	8	·	4.3
Cc1ccc2c(c1)C(c1ccccc1)N(C(=O)c1ccc(Br)cc1)CC(=O)N2 (stereo not drawn)	-18	-1	1	3464	26	-1	0.0
CN(Cc1ccccc1)C(=C(Cl)Cl)/C(=C1/NCCN1Cc1ccc(Cl)nc1)[N+](=O)[O-]	-10	-9	6	7986	-4	2	9.4
CCOC(=O)c1sc(=NC(=O)/C=C/c2ccccc2)n(C)c1C	-36	13	2	4228	6	4	4.5

Molecules from the list above that have a halogen:
SMILES	PrP UTR inh	Mtb hypoxia inh	Mtb hypoxia inh growth	Autofluor counter	Sa ugtP lethal	BJeLR lethal	RN4220 kill
O=C(CN(C(=O)Cn1nnc(-c2ccccc2F)n1)c1cccc2c1CCCC2)NCc1ccccc1	-28	3	1	?	-3	9	-9.3
OCCCNc1cc(-c2ccnc(Nc3cccc(Cl)c3)n2)ccn1	82*	3	13	3510	44	25	19
CC(C)(CNc1ccc([N+](=O)[O-])cc1Cl)N1CCOCC1	-20	2	-2	5452	-2	-8	-2.1
Cc1ccc2c(c1)C(c1ccccc1)N(C(=O)c1ccc(Br)cc1)CC(=O)N2 (stereo not drawn)	-18	-1	1	3464	26	-1	0.0
CN(Cc1ccccc1)C(=C(Cl)Cl)/C(=C1/NCCN1Cc1ccc(Cl)nc1)[N+](=O)[O-]	-10	-9	6	7986	-4	2	9.4

(next part)
SMILES	PrP UTR inh	Mtb hypoxia inh	Mtb hypoxia inh growth	Autofluor counter	Sa ugtP lethal	BJeLR lethal	RN4220 kill
c1ccc(Cc2nnc3sc(-c4ccc5c(c4)OCCO5)nn23)cc1	-5	·	·	5975	-3	-8	2.5
COC1CCCCC1NS(=O)(=O)c1ccccc1 (stereo not drawn)	8	·	·	2689	-4	4	0.0
CCN1CCN(CCC2Oc3cc([N+](=O)[O-])ccc3NC2=O)CC1 (stereo not drawn)	-7	-8	-4	4392	-4	27	2.4
CC(NC(=O)Cc1ccccc1)C(=O)O (stereo not drawn)	-10	4	0	3899	2	·	9.8
CN(C)C(=O)Oc1ccc(OCc2cccc[n+]2C)cc1	-12	1	9	2386	11	-1	-1.9
CCN1CC2C3C(=O)N(C)C(=O)C3[C@](Cc3ccccc3)(C1=O)N2C(=O)c1ccccc1 (stereo partly drawn)	·	0	4	·	0	·	1.9
Cn1c(=O)oc2cc(S(=O)(=O)NC3CCCCCCC3)ccc21	-13	6	0	16482*	4	1	4.4
CCOC(=O)C(NC(=O)NCc1cccc(C(F)(F)F)c1)(OCC)C(F)(F)F (stereo not drawn)	-14	11	-3	2840	-1	7	7.7
COc1cc(NC(=O)c2ccc(N3CCCC3=O)cc2)cc(OC)c1	-68	20	11	2862	2	·	3.2
O=C(NCC(=O)N(CC1CCCO1)C1(C(=O)NC2CCCCC2)CCCCC1)c1ccccc1 (stereo not drawn)	-10	3	14	8815	5	-7	1.1
Cc1cccc(NC(=O)C23CCC(C)(/C(=N/O)C2)C3(C)C)c1 (stereo not drawn)	-27	·	·	9991	·	-9	·
Cc1cccc(C)c1N(CC(=O)NCc1ccc(F)cc1)C(=O)c1csnn1	-14	4	0	4453	-3	10	0.6
O=S(=O)(c1ccc(Br)cc1)N1CCN=C1SCc1cccnc1	-11	5	-8	2277	4	-5	6.5
COc1ccccc1C(N)=S	-25	2	2	8260	16	3	2.2
CCOc1ccc(N2C(=O)/C(=C/c3ccc(C)o3)C(=O)NC2=S)cc1	-19	7	10	3654	-3	0	0.0
COc1ccc(C(CNC(=O)c2cccc(N(C)C)c2)N2CCCC2)cc1 (stereo not drawn)	-17	1	8	10063	-13	2	5.0
O=C1CSc2ccc(S(=O)(=O)NCc3ccc(F)cc3)cc2N1	-18	5	5	4952	5	7	8.7
O=C(/C=C/c1cccc(Cl)c1)NCc1ccncc1	-1	6	22	2046	2	-12	3.7
C=CCN1C2CCCC1CC(NC(=O)Nc1cccc(C(C)=O)c1)C2 (stereo not drawn)	-11	0	10	9977	-2	4	0.2
O=C(COC(=O)C1CCN(S(=O)(=O)c2cccs2)CC1)Nc1ccccc1	-31	1	2	2701	3	-8	2.6
COc1ccc(C2=CC(=O)OC3(CCCCC3)O2)cc1	-10	5	11	5440	9	-8	17
CC(=O)Nc1ccc(S(=O)(=O)N2CCN(CCc3ccccc3)CC2)cc1	-2	0	-4	4519	1	3	-0.5
O=C(O)C12CC3CC(C1)CC(n1ncc(N4CCN(c5ccccc5)CC4)c(Cl)c1=O)(C3)C2	-3	16	4	2447	8	6	8.8
O=S(=O)(c1ccccc1)c1nc(-c2ccccc2)oc1N1CCCC1	-8	-6	-1	3792	-1	3	-4.4
COc1cc(CCC(=O)OCC(=O)Nc2ccc3c(c2)OCO3)cc(OC)c1OC	-17	-4	-4	3808	4	-1	-0.5
CCOC(=O)c1c(C)nc2c3ccccc3ccn12	-35	·	·	3566	12	1	0.6
O=C(NCc1ccc2c(c1)OCO2)c1ccc(Br)o1	-9	·	·	3532	3	-3	4.6
CN(CC(=O)Nc1ccc(F)c(F)c1F)C(=O)Cn1cnc2c1c(=O)n(C)c(=O)n2C	-28	1	0	6692	5	·	3.3
O=C(Nc1nnc(-c2ccccc2)o1)c1nc2ccccc2s1	-35	3	1	5146	98*	6	98*
O=C1CN(C(=O)CSc2nc3c(cnn3-c3ccccc3)c(=O)[nH]2)c2ccccc2N1	2	-11	2	3701	0	·	0.3
CC1CCN(C(=O)CSc2nc3ccccc3c(=O)[nH]2)CC1	-6	7	4	4388	5	-6	7.2
O=C1C2C3CCCC3=C3CCCC3C2C(=O)N1c1ccc(F)cc1 (stereo not drawn)	-6	·	·	5016	3	3	2.3
O=c1[nH]c(CN2CCN(S(=O)(=O)c3ccc4ccccc4c3)CC2)nc2ccccc12	-13	5	9	3862	15	8	2.4
NC(=O)C1CCN(CC(=O)Nc2ccccn2)CC1	1	2	4	3996	4	-3	5.1
Cc1ccc(N2CC(NC(=O)N3CCN(C(=O)c4ccco4)CC3)CC2=O)cc1 (stereo not drawn)	-10	4	-2	·	13	-5	5.1
Nc1c(Cl)cc2c(c1Oc1ccccc1)C(=O)c1ccccc1C2=O	-33	-3	3	7721	-16	2	-2.3
COc1ccc2nc(C)cc(SCC(=O)NN=Cc3ccc(O)cc3O)c2c1	·	16	7	·	0	·	8.5
CCN(CC)C(=O)CSc1ncccc1-c1nc2ccccc2[nH]1	-20	9	13	4462	7	·	-0.5
N/C(=N\OC(=O)c1ccc(=O)n(Cc2ccc(Cl)cc2)c1)c1ccccn1	-27	12	14	2542	2	6	0.4
CC1=CC(C)(C)N(C(=O)CCl)c2ccccc21	-19	22	15	2027	-11	-3	2.4
Cc1ccccc1NCc1ccc([N+](=O)[O-])s1	-3	17	11	4621	5	-1	2.6
CC(C)Oc1ccc(CNC(=O)Oc2ccccc2)cc1	-44	18	3	4135	10	14	-2.4
CC(=O)Nc1nnc(SCC(=O)Nc2ccc(N3CCOCC3)c(Cl)c2)s1	-19	-4	13	4043	-3	3	1.0
CSCCC(NC(=O)c1ccccc1Cl)C(=O)NNC(=O)c1csc(N2CCOCC2)n1 (stereo not drawn)	-12	8	7	?	-3	4	-1.6
COc1ccc(NC(=O)C2CCCCN2N)cc1OCC(C)C (stereo not drawn)	-25	-2	2	8779	2	-6	26
O=C(O)CCC(=O)N1CCN(c2nc(-c3ccccc3Cl)c3cc(Br)ccc3n2)CC1	-10	15	12	2480	24	2	2.1
COc1ccc(C)cc1-n1nnnc1SCC(=O)NC1CC1	5	-2	-7	3213	4	·	6.1
COC(=O)COc1cccc(NS(=O)(=O)c2cccc([N+](=O)[O-])c2)c1	-21	4	6	4871	-3	6	6.4
CCCc1c(O)nc(SCC(=O)NCCc2ccc(OC)c(OC)c2)[nH]c1=O	-6	·	·	4719	-3	2	4.8
Cc1cc(=O)[nH]c(N/N=C/c2c[nH]c3ccccc23)n1	-22	·	·	4347	·	6	·
COc1ccc2cc(S(=O)(=O)NCCCN3CCOCC3)ccc2c1	-20	8	6	3372	0	4	2.7
CCc1ccc(NC(=O)CCc2ccc(C)o2)cc1	-14	-5	0	3612	1	-13	-1.4
CCCCc1nc(C(N)=O)c2[nH]c(=O)n(-c3ccc(OC)c(OC)c3)c2n1	6	-5	1	6036	-4	-6	3.5
CCCCc1sc(-c2c(C#N)c(N)nc3c2CCCCC3)cc1[N+](=O)[O-]	-23	5	5	9487	15	-5	1.6
Cc1cc(C(=O)NNc2cc(Cl)ccc2Cl)no1	-17	5	5	3999	-15	-2	-2.5
O=C(NC(NCc1ccccn1)(C(F)(F)F)C(F)(F)F)c1ccco1	-30	0	6	22419*	-1	11	1.9
COc1ccc(OCCCC(=O)NCCc2nc3ccccc3[nH]2)cc1	-11	2	17	2134	5	5	3.1
CCCCOC(=O)c1cc(-c2ccc(C=Nn3cnnc3)o2)ccc1Cl	·	12	-3	·	-19	·	1.8
COc1cccc([C@@H]2CC=C(C(=O)O)[C@H](c3ccc(C)cc3)N2S(=O)(=O)c2ccc(C)cc2)c1	-12	-1	3	3596	2	·	22
Cc1ncc([N+](=O)[O-])n1CC(=O)Nc1cc(Cl)ccc1Cl	-3	1	1	3362	0	1	0.0
CC[C@]12c3[nH]c4cc(-c5ccco5)ccc4c3CCN1C(=O)[C@@H](CC(=O)NCCN1CCOCC1)C[C@@H]2C(=O)N1CCN(C(=O)C2CC2)CC1	-5	1	1	3698	0	·	2.6
O=C(NCCN1CCN(C(=O)c2cccs2)CC1)C(=O)Nc1ccc(Br)cc1	-7	·	·	3230	2	12	2.7
COc1ccc(CNC(=O)C(NS(=O)(=O)c2cccc3nsnc23)C(C)C)cc1 (stereo not drawn)	5	4	-6	5846	2	2	2.1

Single records (already shown). Values in the order: PrP UTR inh	Mtb hypoxia inh	Mtb hypoxia inh growth	Autofluor counter	Sa ugtP lethal	BJeLR lethal	RN4220 kill
Results for O=C(O)CCC(=O)N1CCN(c2nc(-c3ccccc3Cl)c3cc(Br)ccc3n2)CC1 : -10	15	12	2480	24	2	2.1
Results for O=C(NC(NCc1ccccn1)(C(F)(F)F)C(F)(F)F)c1ccco1 : -30	0	6	22419*	-1	11	1.9
